Calb biofilm kill = mixtures killing C. albicans biofilm; AID 1242; C. albicans biofilm persisters + clotrimazole, fluorescence viability; primary screen in compound mixtures of four per well; 120,000 compounds, 0.02% hits; inhibition, % at 7.6 µM;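 active = inhibition above 30.3% in the primary screen of four-compound pools, then above 30% when the compound was retested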;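 also: compounds exposed to preformed 24 h biofilms for 48 h; the number belongs to the whole pool; some results filed as inactive read as strong as hits; inactives centre near 12; 0% = biofilm with clotrimazole alone and 100% = kill control; retested singly at about 60 µM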
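Probe or stimulus – Clotrimazole 50 µg/mL co-treatment · System – C. albicans biofilms · Schedule – 24 h biofilm formation, then 48 h compound exposure, 37 °C · Evaluation – percent inhibition of biofilm viability · Technique – 2-h Alamar Blue fluorescence, 535/590 nm excitation/emission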
The depositor's hits bear a star. Not all compounds are listed; rates above refer to the full screens.

SMILES | Calb biofilm kill
O=C(c1ccco1)N1CCN(C(=O)c2cc3cc([N+](=O)[O-])ccc3oc2=O)CC1 | 10
CC(=O)c1sc2nc(-c3ccco3)ccc2c1N | 5
COc1ccc(C(=O)NC(=S)NCc2ccccc2)cc1OC | 14
COc1cc2c3c(c1OC)C1(C=CC(=NNC(N)=O)C=C1)CC3N(C(C)=O)CC2 (stereo not given) | 0
CC(=O)NNC(=S)Nc1cc(S(=O)(=O)N(C)C)ccc1C | 2
C/C(CC(=O)NC(C)c1ccccc1)=N\NC(N)=S (stereo not given) | 27
O=C(c1ccccc1F)N1CCN(c2ccc([N+](=O)[O-])c(NCC3CCCO3)c2)CC1 (stereo not given) | 7
CCN(CC)c1ccc([N+](=O)[O-])cc1C(=O)N1CCOCC1 | 10
NC(=O)C(CC(=O)O)NC(=O)[C@@H]1CCOc2c(I)cc([N+](=O)[O-])cc2C(=O)N[C@@H](CCC(=O)O)C(=O)N[C@@H](CO)C(=O)N1 (stereo not given in full) | 16
C[C@@H](CN1C2=NC[C@H](C)N2C[C@H]1Cc1ccc(O)cc1)NC(=O)CCC1CCCCC1 | 20
CCN(CC)C(=S)NCCc1ccccc1 | 12
COc1ccc(/C=C/C(=O)NCCOc2ccc(C)cc2)cc1 | 1
COc1cc(C2NC(=S)NC(c3ccccc3)=C2C(C)=O)ccc1O (stereo not given) | 11
Cc1cc(C)cc(NCc2cc(=O)oc3cc(-c4ccccc4)c(O)cc23)c1 | 13
CCCCC(=O)NC(=O)NC(c1ccccc1)c1ccccc1 | 18
CC(NC(=O)COC(=O)c1cc(NS(=O)(=O)c2ccc(Cl)c([N+](=O)[O-])c2)ccc1O)C1CC2CCC1C2 (stereo not given) | 10
CC(=O)Nc1ccccc1Sc1ccc2c3c(cccc13)C(=O)N(c1ccc(C)cc1)C2=O | 21
CCN(CC)S(=O)(=O)c1cccc(C(=O)OCC(=O)NC(C)c2ccccc2)c1 (stereo not given) | 10
CCn1c(SCC(=O)O)nc2ccccc21 | 19
O=C(Nc1cccc(S(=O)(=O)Nc2ccccc2F)c1)c1ccc2ccccc2n1 | -4
O=C(NCc1ccccc1)C1CCC(CNc2c(N3CCCCC3)c(=O)c2=O)CC1 (stereo not given) | 1
CCCCCCCCCCC(=O)Nc1cccnc1 | 14
Cc1cccc(NC(=O)[C@H](Cc2ccccc2)NC(=O)OCc2ccccc2)c1 | 9
N#CCCN(C(=O)COC(=O)c1ccc2c(=O)n3c(nc2c1)CCC3)c1ccc(F)cc1 | -13
CCN(CC)C(=O)N1CCN(C(=O)N2CCOCC2)CC1 | 12
Cc1ccc(CNC(=O)CCC2CCCN(C(=O)c3ccc4c(c3)OCO4)C2)o1 (stereo not given) | 11
CN(C)S(=O)(=O)c1cc(NC(=O)CN2CCOCC2)ccc1Cl | 18
N#Cc1nc(-c2ccc(Cl)cc2)oc1NCC1CCCO1 (stereo not given) | 19
O=c1cccccc1NN=C1CCCCCC1 | 20
COc1cc(/C=N/NC(=O)NC2CCCCC2)cc(OC)c1O | 12
COC(=O)CCC(=O)CN | 5
Cc1oc(-c2ccoc2)nc1CN(CC1CCC(=O)N1)C(C)C (stereo not given) | 11
Cc1ccnc(N2C(=O)CSC2c2ccc(Cl)cc2)c1 (stereo not given) | 7
O=C(NC(=S)NCCc1ccccc1)C1CCCCC1 | 5
O=C(/C=C/c1ccc(S(=O)(=O)N2CCOCC2)cc1)NC(=S)NCCCn1ccnc1 | 13
COC(=O)CCNS(=O)(=O)c1ccc2ccccc2c1 | 0
Cc1ccc(F)c(NC=C2C(=O)OC(C)(C)OC2=O)c1 | 12
CC(=O)c1ccc(NC(=O)c2c(C)nn(-c3ccccc3)c2Cl)cc1 | 8
O=C(CCN1CCN(c2ccccc2)CC1)N/N=C/c1ccc(O)c(O)c1O | 7
O=C(N/N=C/c1ccc[nH]1)c1ccc([N+](=O)[O-])cc1 | 19
COc1ccc(N2C(=O)/C(=C\c3ccco3)N=C2SCC(=O)NC(C)(C)C)cc1Cl | 15
O=C1C=C(O)C(n2cncn2)C(c2ccc(F)cc2)C1 (stereo not given) | -2
Cc1cc(OCCn2cnc3ccccc3c2=O)ccc1[N+](=O)[O-] | 17
CCOC(=O)c1ccc(N2C(=O)C(O)=C(C(C)=O)C2c2ccccc2)cc1 (stereo not given) | 7
CCOC(=O)C1CCN(c2ccc([N+](=O)[O-])cc2)CC1 | 11
Cc1ccc(C(=O)c2ccccc2C(=O)OCC(=O)NC(=O)NC(C)(C)C)cc1 | 12
Fc1cccc(CSc2ccc3nnc(-c4cccnc4)n3n2)c1 | 4
CCOC(=O)C1=C(C)N(C)C(C)=C(C(=O)OCC)C1c1ccsc1 | 13
O=C(N[C@@H](Cc1ccccc1)C(=O)O)c1c(F)c(F)c(F)c(F)c1F | 22
Cc1ccc(-c2nnc(NCc3nc4ccccc4[nH]3)c3ccccc23)cc1S(=O)(=O)N1CCOCC1 | 6
CC(=O)c1ccc2noc(-c3ccccc3)c2c1 | 19
CCOC(=O)c1sc(=NC(=O)C2CC2)n(C)c1C | 16
CSc1ccc(-c2cccc([N+](=O)[O-])c2)nn1 | 12
Cc1cc(=O)[nH]c(SCC(=O)Nc2cc(S(=O)(=O)N(C)C)ccc2Cl)n1 | 15
CC1(C)CC(=O)C(C=NCCN2CCN(C3CC(=O)N(c4ccc(Br)cc4)C3=O)CC2)=C(O)C1 (stereo not given) | 4
O=C(Nc1ccccc1)/C(=C\c1ccccc1)NC(=O)c1ccco1 | 4
O=C(c1ccc2c3n(nc2c1)-c1ccc(Cl)cc1CO3)N1CCOCC1 | 16
COc1cccc(/C=N/NC(=O)c2ccccc2NC(=O)c2ccco2)c1OC | 10
COCCn1c(SC2CCCCC2=O)nnc1-c1ccncc1 (stereo not given) | 15
Cc1cccnc1NC(=S)Nc1ccc(Cl)c(Cl)c1 | -1
Further structures.
SMILES | Calb biofilm kill
O=C(NNC(=O)c1ccc(Br)o1)c1ccc(NC(=O)c2ccccc2)cc1 | 21
CCN(CC)CCNC(=O)C1c2cc(OC)c(OC)cc2C(=O)N(C)C1c1cccs1 (stereo not given) | 7
CC1=CCn2c(=O)c3ccccc3c(=O)n2C1 | 18
COc1ccc(NC(=O)Cc2c(F)cccc2Cl)cc1 | -2
CC(=O)c1sc(NC(=O)c2ccc(C(C)(C)C)cc2)nc1C | 5
CCCCN(C(=O)c1cc(=O)[nH]c2ccccc12)c1c(N)n(CCC)c(=O)[nH]c1=O | 51
CCN(CC)C(=O)/C(NC(=O)c1ccccc1)=C(/Sc1ncccn1)c1ccccc1 | 13
Cc1ccc(-c2oc3ccccc3c(=O)c2OCC(=O)O)cc1 | 8
COc1cc(C(=S)N2CCOCC2)ccc1OC(=O)Cc1ccc(F)cc1 | 9
Cc1nnc(-c2cccc(C(F)(F)F)c2)nc1N1CCOCC1 | 16
Cc1cccc(NC(=O)C2C(c3ccccc3)C2(Cl)Cl)c1 (stereo not given) | 4
CCN(C(=S)Nc1cc(S(=O)(=O)N2CCOCC2)ccc1Cl)c1cccc2ccccc12 | 9
O=C(CCN1C(=O)C2CCCCC2C1=O)Nc1nc(-c2ccc(F)c(F)c2)cs1 (stereo not given) | 13
CCCCCCNC(=O)CCCCCNS(=O)(=O)c1ccc(OC)cc1 | 8
Cc1cc(C)n(C(=O)c2ccc(Cl)c(F)c2F)n1 | 14
CCN1C(=O)N(C(C)=O)C2C1N(C(C)=O)C(=O)N2C(C)=O (stereo not given) | 16
COc1ccccc1C(=O)Nc1onc(C)c1C#N | 10
CN1CC(c2ccccc2)C(c2ccc(Cl)cc2)=N1 (stereo not given) | 14
CSc1nnc(-c2cccc(NC(=S)NN)c2)o1 | 0
C#CCOCCOCCOCCNc1nc(N2CCN(C(=O)[C@H](C)n3cc(CCCN=C(N)N)nn3)CC2)nc(N2CCN(C(=O)[C@H](CCCCN)n3cc(CCCC)nn3)CC2)n1 | 7
O=c1[nH]c(/C=C\c2cccs2)nc(O)c1[N+](=O)[O-] | 11
COc1ccc(C(=O)NC2CCN(C(=S)Nc3ccccc3)CC2)cc1 | 20
Cc1cccc2cc(C#N)c(SCC(=O)NCC3CCCO3)nc12 (stereo not given) | 12
CC(C)(CO)NC(=S)NCc1ccco1 | 18
COC(CNC(=O)c1ccc2c(c1)ncn2-c1cccc(F)c1)OC | 22
COc1cccc(-n2c(SCC(=O)Nc3ccc4c(c3)CCC4)nc3ccccc3c2=O)c1 | 12
O=C(c1cn2ccccc2n1)N1CCc2c([nH]c3ccccc23)C1c1ccccn1 (stereo not given) | 0
Cc1nc(-c2nc(-c3c(C(=O)NNC(=O)c4ccc(Cl)cc4)noc3C)cs2)cs1 | 12
c1ccc(Oc2ccc(-c3ccnc4ncnn34)cc2)cc1 | -4
COc1ccc(CC(=O)Nc2ccc3nc(C)sc3c2)cc1OC | 7

The closing 7 entries of the part before open the next one.
SMILES | Calb biofilm kill
CC(C)(CO)NC(=S)NCc1ccco1 | 18
COC(CNC(=O)c1ccc2c(c1)ncn2-c1cccc(F)c1)OC | 22
COc1cccc(-n2c(SCC(=O)Nc3ccc4c(c3)CCC4)nc3ccccc3c2=O)c1 | 12
O=C(c1cn2ccccc2n1)N1CCc2c([nH]c3ccccc23)C1c1ccccn1 (stereo not given) | 0
Cc1nc(-c2nc(-c3c(C(=O)NNC(=O)c4ccc(Cl)cc4)noc3C)cs2)cs1 | 12
c1ccc(Oc2ccc(-c3ccnc4ncnn34)cc2)cc1 | -4
COc1ccc(CC(=O)Nc2ccc3nc(C)sc3c2)cc1OC | 7
N#C/C(=C\C1=C(N2CCOCC2)C(=C\c2ccc(Cl)cc2)/CC1)C(=O)Nc1ccccc1F | 8
O=C(CSc1nnc(-c2ccccc2O)n1-c1ccccc1)Nc1cccc(C(=O)O)c1 | 8
CC(=O)Nc1ccc2c(c1)nc(CCNC(=O)c1ccccc1)n2C | 7
Cc1noc(C)c1COC(=O)CNC(=O)c1ccc(Cl)cc1 | 12
O=C(C(=O)N1CCc2ccccc2C1)N1CCc2ccccc2C1 | -10
CCOC(=O)c1c(NC(=O)C2CCCN(S(=O)(=O)c3ccccc3)C2)sc2c1CCCC2 (stereo not given) | 8
NC1=NC(=O)/C(=C/c2ccccc2OS(=O)(=O)c2ccccc2)S1 | 15
CC(C)C(=O)Nc1ccc(N2CCN(c3ccc(F)cc3)CC2)cc1 | 7
O=C(COC(=O)c1ccccc1Nc1ccc(SC(F)F)cc1)NC1CC1 | 9
O=C1CC2(CC(c3ccc(Cl)cc3)=NO2)C(=O)N1c1ccccc1 (stereo not given) | 16
COc1ccc2[nH]c(C)cc(=O)c2c1 | 8
CCC(=O)Nc1cccc(-c2cn3ccccc3n2)c1 | -4
O=C(O)c1cc(-c2ccc(N3CCOCC3)cc2)nn1-c1ccc(F)cc1F | 1
C/C=C/C(=O)NCCc1ccc(OC)c(OC)c1 | 5
CNCCCCOc1ccc(C(C)(C)C)cc1Cl | 24
COc1cc(SC)ccc1C(=O)NCCOc1ccc(F)cc1 | 9
COc1ccc(NC(=O)CSC2=NCCN2)cc1 | -5
Cc1ccccc1NC(=O)CSc1nc2n(n1)CCCCC2 | 8
CCOc1ccccc1NC(=O)CSC1=C(C#N)C(c2ccco2)C(C(=O)Nc2nc3ccccc3s2)=C(C)N1 (stereo not given) | 17
Cc1csc(SCC(=O)NC(=O)NC(C)C)n1 | 15
COc1ccc(/C=C/c2nc(-c3ccccc3)cc(=O)[nH]2)cc1 | 32
S=C(NCc1ccc(Cl)cc1)NCc1ccccn1 | 16
CC(C)(C)c1oc(C(=O)O)cc1CN1CCOCC1 | 10
CCOC(=O)c1[nH]c2ccccc2c1NC(=O)c1ccc(Br)o1 | 19
COc1ccc(CCNC(=O)C2CCN(S(=O)(=O)c3cccs3)CC2)cc1OC | 18
COCCNC(=O)/C(C#N)=C/c1cccc(OCc2ccccc2)c1 | 15
COc1cc(NC(=S)N2CCN(c3ccccn3)CC2)cc(OC)c1OC | 1
Cc1ccc(/C=C/C(=O)Nc2ncc(C)s2)o1 | 23
COc1cc(/C=C/C(=O)N2c3ccccc3Sc3ccc(C(F)(F)F)cc32)cc(OC)c1OC | 12
Cc1ccc(N)c(C(=O)CCCCC(=O)O)c1 | 8
Cc1ccc(NC(=O)c2ccc3c(c2)C(=O)N(Cc2cccnc2)C3=O)c(C)c1 | 34
O=C(COC(=O)c1ccccc1O)Nc1ccc(S(=O)(=O)N2CCCCC2)cc1 | 10
CC1Cc2ccccc2N1C(=O)CSc1nncn1C (stereo not given) | 3
O=C(Nc1cccc([N+](=O)[O-])c1)c1ccc(-c2ccccc2)cc1 | 20
Cc1cccc(Nc2n[nH]c(C)c2[N+](=O)[O-])c1 | 14
O=C(c1cc(N2C(=O)C3C4CCC(C4)C3C2=O)ccc1Cl)N1CCN(c2ccccc2F)CC1 (stereo not given) | 14
O=C(COC(=O)/C(=C/c1cccs1)c1cccs1)NCc1ccccc1Cl | 2
O=C(NCCCN1CCOCC1)c1ccc(-c2ccc(Cl)cc2)o1 | 9
Nc1nonc1NN=C1CCCCC1 | 4
CCn1c(OC)nc2c1c(=O)n(C)c(=O)n2C | 7
Clc1ccccc1-c1nnc(-c2ccccc2Cl)o1 | 11

Molecules above containing a tert-butyl group:
SMILES | Calb biofilm kill
COc1ccc(N2C(=O)/C(=C\c3ccco3)N=C2SCC(=O)NC(C)(C)C)cc1Cl | 15
Cc1ccc(C(=O)c2ccccc2C(=O)OCC(=O)NC(=O)NC(C)(C)C)cc1 | 12
CC(=O)c1sc(NC(=O)c2ccc(C(C)(C)C)cc2)nc1C | 5
CNCCCCOc1ccc(C(C)(C)C)cc1Cl | 24
CC(C)(C)c1oc(C(=O)O)cc1CN1CCOCC1 | 10

Screening results from PubChem BioAssay.
